Screening results (PubChem)
PINK1 expr mod – PINK1 expression modulation | Potency, µM (top dose mostly 76.6 µM), for the others: at the top dose activation (PINK1 increase), actives largely listed as activators | PINK1 immunofluorescence, high-content cytometry, 24 h | AID 624263 | hit rate 0.2% among 410,000; active = well fitted activation curve with a large enough effect; inconclusive = small, poorly fitted or top-dose-only effect; inactive = flat fitted curve, though single readings scatter; cell line not stated here;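 further: potency means the concentration at half of the fitted maximal effect; % of control where 0% means no effect; nearly all actives have a fitted effect of over 65% in size; a mitochondrial uncoupler was the plate control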
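PINK1 protein, normally rapidly degraded, was detected by immunofluorescence after 24 hour compound treatment of a stable cell line. Titration data (5 concentrations) came from laser-scanning cytometry, with CCCP-treated wells as controls.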
Sfp PPTase inh – Sfp phosphopantetheinyl transferase inhibition; hit rate 3.5% among 310,000; Potency, µM, for the others: max response, negative = inhibition, hits mostly inhibitors; AID 1490; Biochemical Sfp PPTase activity, qHTS; Q9F4F7; active means well fitted inhibition curve with a large enough effect; inconclusive means small, poorly fitted or top-dose-only effect, or another doubt; inactive means no such curve, though single readings can be large or run the other way;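 further: the enzyme is Sfp with the accession as filed and its product quenches rhodamine fluorescence; potency means the concentration at half of the fitted maximal effect; 0% = enzyme reaction without inhibitor and -100% = no enzyme wells; top concentration of the series not given in the record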
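With Hepes-Na pH 7.6 buffer containing 10 mM MgCl2, Sfp (15 nM) modified BHQ-2-YbbR (12.5 uM) using rhodamine-CoA (5 uM). Two reads 30 minutes apart at 525/598 nm yielded each well's rate.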
ClpP mod – qHTS Assay for Activators of ClpP | ATP-dependent Clp protease proteolytic subunit (Bacillus subtilis (strain 168)), P80244 | purified B. subtilis ClpP, FRET peptide cleavage, 20 min | Potency, µM (top dose mostly 57.5 µM), without a hit: at the highest dose activity change, negative = active | hit rate 1.9% among 340,000 | AID 651965, 2013; active = well fitted falling curve with a large enough effect; inconclusive = small, poorly fitted or top-dose-only effect; inactive = no such curve, though single readings can be large or run the other way; further: potency means the concentration at half of the fitted maximal effect; the source files actives as falling curves though it sought activators and does not explain the sign; nearly all actives have a fitted effect of over 65% in size; many hits overshoot -100%
Target sequence (P80244 whole entry, looked up): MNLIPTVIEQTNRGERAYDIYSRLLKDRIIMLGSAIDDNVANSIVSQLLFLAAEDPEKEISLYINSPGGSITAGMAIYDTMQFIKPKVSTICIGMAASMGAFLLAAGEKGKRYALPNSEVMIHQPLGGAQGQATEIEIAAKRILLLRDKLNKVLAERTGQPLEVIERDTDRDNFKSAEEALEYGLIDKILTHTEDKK
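FRET quenching reversal measured ClpP activation: 10 microg/mL B. subtilis ClpP at pH 8 with the FRET-FV decapeptide, read at 430 nm after 320 nm excitation. The 20-min minus 0-min signal was scaled between DMSO/no-enzyme wells and ADEP (5.8 microM final).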
TRPML1 ag – agonists of human TRPML1 channel; Q9GZU1; TRPML1-expressing cells, Ca2+ dye fluorescence, FDSS; host cell line not named in the record; reference of the full effect not given here; activation, % (concentration not given with the values); hit rate 0.12% among 410,000; in the data active = activation above about 50%; inconclusive = about 30% to 50%; inactive = below about 30%; further: 0% is about no effect; the text of the record puts the active cut at 80%
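Calcium fluorescence on an FDSS kinetic reader gave the read-out. Tet-induced TRPML1-DL cells were plated overnight, dye-loaded (Ca8 with quencher, 45-90 min, room temperature, dark), then read 110 s after compound addition, and again 110 s after 4uM final 54-4 (EC80).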
TRPML1 blocker – inhibitors of human TRPML1 channel | Q9GZU1 | TRPML1-inducible cells, Ca2+ dye fluorescence, FDSS; stronger effect = lower value; inhibition of EC80 agonist-evoked calcium signal | activity change, negative = inhibition, % (concentration not given with the values) | hit rate 0.02% among 390,000 | AID 624415; in the data active means activity change below about -50%; inconclusive means about -30% to -50%; inactive means above about -30%;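 further: stimulus is agonist 54-4 at its EC80 concentration; on the % scale 0 is the no-effect control and ±100 the full control effect; compound concentration not given in the record; the text of the record puts the active cut at -80%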
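Calcium fluorescence in TRPML1-DL cells induced overnight with Tet: a 110 s read after compound pin addition, then a 110 s antagonist read after challenge with 54-4 at 4 uM final (EC80).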
TRPV1 potentiator – potentiators of human vanilloid receptor 1 (TRPV1). Q8NER1. TRPV1-expressing cells, Fluo-8 calcium influx, capsaicin EC20 potentiation; host cell line not named in the record; control for the full effect not named in the record. potentiation, % at 8.33 µM. hit rate 0.02% among 320,000. AID 540277; active means potentiation above 80%; inconclusive means 30% to 80%; inactive means below 30%; further: 0% is about no effect
Target sequence (Q8NER1 whole entry, looked up): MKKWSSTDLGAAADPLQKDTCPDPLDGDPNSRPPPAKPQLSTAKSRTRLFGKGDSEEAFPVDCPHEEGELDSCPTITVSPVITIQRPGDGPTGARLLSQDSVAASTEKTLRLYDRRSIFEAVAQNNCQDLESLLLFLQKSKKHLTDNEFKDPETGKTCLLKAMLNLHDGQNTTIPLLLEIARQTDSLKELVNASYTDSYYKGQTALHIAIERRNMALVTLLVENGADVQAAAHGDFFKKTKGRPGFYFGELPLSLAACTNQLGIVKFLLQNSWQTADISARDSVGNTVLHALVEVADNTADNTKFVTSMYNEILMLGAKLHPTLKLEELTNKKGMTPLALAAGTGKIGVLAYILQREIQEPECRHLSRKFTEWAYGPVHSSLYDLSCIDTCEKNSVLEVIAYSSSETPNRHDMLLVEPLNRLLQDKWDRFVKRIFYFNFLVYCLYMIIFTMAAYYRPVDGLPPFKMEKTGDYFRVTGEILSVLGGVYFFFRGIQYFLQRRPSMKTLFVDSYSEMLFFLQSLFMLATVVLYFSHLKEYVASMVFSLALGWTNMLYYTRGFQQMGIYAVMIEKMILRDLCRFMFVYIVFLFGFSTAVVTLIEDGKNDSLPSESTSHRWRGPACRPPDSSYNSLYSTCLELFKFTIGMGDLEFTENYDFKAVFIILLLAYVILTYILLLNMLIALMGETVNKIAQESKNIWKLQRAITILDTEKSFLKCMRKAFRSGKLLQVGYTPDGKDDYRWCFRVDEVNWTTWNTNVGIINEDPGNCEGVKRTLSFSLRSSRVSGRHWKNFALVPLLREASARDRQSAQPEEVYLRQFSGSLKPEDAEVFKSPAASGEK
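Cells expressing TRPV1 were dye-loaded with Fluo-8 and read kinetically: 10 s baseline, 3 min after compound (agonist portion), then 2 min after EC20 capsaicin (allosteric enhancer portion). Calcium-bound dye fluorescence at 480/520 nm.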
Menin MLL FP FL – menin-MLL binding inhibition, fluorescein peptide | Fluorescence polarization, fluorescein-MLL peptide displacement from menin | AID 1766 | FP activity change, % at 61.4 µM | 290,000 tested, under 10 active; inconclusive = falling polarisation curve, or a change in total fluorescence; inactive = total fluorescence flat and polarisation flat or rising; no compound was filed as active; the % refers to the polarisation; negative = inhibition;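 further: % of control where 0% means no effect; inhibitors lower the polarisation; unlabelled MLL peptide was the positive control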
Starred values were filed as active, the others as inactive; ? = inconclusive; nt = no result given; [ ] = dose if it differs, or a comment.

SMILES	PINK1 expr mod	Sfp PPTase inh	ClpP mod	TRPML1 ag	TRPML1 blocker	TRPV1 potentiator	Menin MLL FP FL
COc1ccc(C2C(=O)N(C3CCCCC3)CC(=O)N2Cc2ccccc2Cl)cc1OC (configuration not stated)	0.4%	nt	-7.6%	0.4	-8	nt	nt
CCN(C(=O)COn1nnc2ccc(S(=O)(=O)N(C)C)cc21)C1CCS(=O)(=O)C1 (configuration not stated)	0.0%	nt	2.0%	-0.6	10	5	nt
COc1ccc(Nc2nc(Nc3ccc(OC)cc3OC)nc(N3CCOCC3)n2)c(OC)c1	0.6%	nt	?	0.5	-2	nt	nt
COc1cccc(C2C3=C(CC(C)(C)CC3=O)Nc3n[nH]c(C)c32)c1 (configuration not stated)	1.8%	-19%	3.7%	0.6	-1	-2	-0.4
COc1ccc(-c2cn3c(n2)sc2cc(C(=O)NC4CCCc5ccccc54)ccc23)cc1 (configuration not stated)	0.4%	nt	3.5%	0.0	9	nt	nt
C=CCn1c(SCC(=O)Nc2ccc(-c3nc4ccc(C)cc4s3)cc2)nnc1-c1ccncc1	17%	9%	3.5µM*	0.0	4	-2	1.4
CCCN1C(=O)c2[nH]nc(-c3ccccc3O)c2C1c1ccc(OCc2ccccc2)c(OCC)c1 (configuration not stated)	5.5%	nt	-3.7%	0.6	-1	nt	nt
Cc1cccc(NC(=S)NCCN2CCOCC2)c1	0.6%	0%	1.2%	-0.1	-14	-1	-0.9
N#Cc1c(NC(=O)C2CC(c3ccccc3Cl)=NO2)sc2c1CCC2 (configuration not stated)	8.2%[38.3 µM]	12%	-3.2%	1.9	-3	?	4.7
O=C(c1ccco1)N1CCC2(CC1)CCN(c1ncccn1)CC2	-0.5%	-7%	nt	nt	nt	nt	-5.7
CC(NC(=O)CCCCCN1C(=O)c2ccccc2C1=O)c1ccc2c(c1)CCCC2 (configuration not stated)	nt	-18%	-0.9%	4.1	21	7	-5.7
O=Cc1c[nH]c2cccc(OCc3ccccc3)c12	-2.5%	nt	-20%	0.4	-4	2	nt
C[C@@H]1CCCCO[C@@H](CN(C)C(=O)Nc2ccc3c(c2)OCO3)[C@@H](C)CN([C@H](C)CO)C(=O)c2cc(N(C)C)ccc2O1	3.9%	nt	-8.3%	-0.3	16	nt	nt
Cc1ccc2nc(-c3ccc(N4C(=O)CC(N5CCC(C(N)=O)CC5)C4=O)cc3)sc2c1 (configuration not stated)	nt	-8%	nt	nt	nt	27	-1.5
CN(CC(O)COc1ccccc1F)C1CCCCC1 (configuration not stated)	5.1%	6%	nt	-0.1	15	-4	2.2
CCOC(=O)c1sc(=S)n(-c2cccc(OC)c2)c1N	2.9%[38.3 µM]	40µM*	0.2%	0.6	10	1	2.9
CCn1c(CNC(=O)c2ccccc2F)nnc1SCc1nc2ccccc2c(=O)[nH]1	nt	5%	nt	nt	nt	1	-6.3
CN1C=CC(=CC=C2C=CC(=O)C=C2)C=C1	3.6%	-10%	-3.0%	2.7	12	-11	?
O=C(CNC(=O)Cn1ccc2ccccc2c1=O)NCCCN1CCN(c2cccc(Cl)c2)CC1	-1.8%	-17%	-9.9%	0.0	-4	3	2.3
COc1cc(C(CC(=O)NCc2ccc(F)cc2)N2Cc3ccccc3C2=O)cc(OC)c1OC (configuration not stated)	-5.7%	nt	-1.7%	0.3	-18	nt	nt

Ordered by the number under Sfp PPTase inh (largest number first): some entries from above
molecule | Sfp PPTase inh | TRPML1 blocker | Menin MLL FP FL
CN(CC(O)COc1ccccc1F)C1CCCCC1 (configuration not stated) | 6% | 15 | 2.2
Cc1ccc2nc(-c3ccc(N4C(=O)CC(N5CCC(C(N)=O)CC5)C4=O)cc3)sc2c1 (configuration not stated) | -8% | nt | -1.5
O=C(CNC(=O)Cn1ccc2ccccc2c1=O)NCCCN1CCN(c2cccc(Cl)c2)CC1 | -17% | -4 | 2.3

(cont.)
SMILES	PINK1 expr mod	Sfp PPTase inh	ClpP mod	TRPML1 ag	TRPML1 blocker	TRPV1 potentiator	Menin MLL FP FL
Cc1onc(-c2ccccc2)c1C(=O)N(C)CCc1ccccn1	3.8%	10%	0.4%	0.7	3	-6	nt
CCC(=O)N(Cc1ccccc1)c1ccccn1	0.7%	10%	-1.1%	-0.6	-15	0	1.0
CC(=O)N=c1nc(-c2ccccc2)n(-c2ccccc2)s1	-1.0%	nt	-2.3%	-1.0	nt	nt	nt
O=C(NCCNC(=O)c1ccc(Cl)cc1Cl)c1ccco1	-0.6%	8%	nt	0.0	-5	2	-6.7
CSc1nc(N(C)NC(=O)c2ccccc2)c2ccccc2n1	5.8%	13%	-1.1%	-0.6	5	5	-1.0
CC(C)CNC(=O)c1noc2c1CCCC2	5.3%	14%	0.9%	-0.6	-6	-37	-2.6
CN(C)/C=C/C(=O)/C=C/c1ccc(Cl)cc1Cl	2.8%	0%	nt	-0.6	-8	-25	6.3
O=C(CSc1nc2ccccc2c(=O)n1-c1ccccc1Cl)NC1CCS(=O)(=O)C1 (configuration not stated)	-1.7%	nt	1.1%	0.6	16	17	nt
Cc1ccc(C(=O)NCc2ccccc2F)cc1S(=O)(=O)N1CCCC1	0.2%	14%	nt	1.0	9	2	-2.9
N#CCC(=O)Nc1ccc(C(=O)OCC(=O)NNC(=O)c2ccc(Cl)cc2)cc1	3.2%	nt	nt	0.1	12	-15	nt
On1c(-c2ccccc2)nc2ccc(Cl)cc21	-2.7%	12%	-11%	0.3	-7	11	1.1
CN(C)S(=O)(=O)c1cccc(COC(=O)C2=COCCO2)c1	-1.0%	1%	1.5%	1.6	-10	?	4.0
CC(C)CNC(=O)CSc1nc(-c2cccs2)cc(C(F)(F)F)n1	-1.0%	12%	?	0.0	10	-3	-0.7
COc1ccc(S(=O)(=O)N2CCCC(C(=O)NCCc3ccccc3)C2)cc1 (configuration not stated)	3.7%	5%	-0.3%	-1.2	-1	-18	-7.8
COc1ccc(C2=NOC(C(=O)NCc3ccco3)C2)cc1OC (configuration not stated)	13µM*	-1%	-3.9%	-0.2	-2	-20	2.3
Cc1cc(C)cc(NC(=O)CCn2ccnc2C)c1	0.2%	11%	-2.8%	0.3	11	?	3.9
CC1(C(=O)Nc2ccc3c(c2)OCCO3)CCC(=O)N1CCOc1ccccc1 (configuration not stated)	0.2%	nt	4.0%	-0.8	nt	nt	nt
CCCCN(C(=O)CSc1nnc2ccccn12)c1c(N)n(Cc2ccccc2)c(=O)[nH]c1=O	1.9%	-5%	nt	-0.7	-3	5	7.2
O=C(CSCc1cnn(-c2ccccc2)c1-n1cccc1)NCc1ccc2c(c1)OCO2	-0.6%	1%	-2.3%	1.3	21	-2	0.9
Cc1noc(C)c1COc1ccc(C(=O)N2CCN(S(=O)(=O)c3ccc(Cl)cc3)CC2)cc1	?	nt	-19%	1.0	-4	4	nt
Cc1ccc(OCC(=O)Nc2c(C(=O)c3ccccc3)oc3ccccc23)cc1C	1.5%	nt	-20%	4.2	5	nt	nt
Cc1nc(NCC2CCCO2)[nH]c(=O)c1CCC(C)C (configuration not stated)	-1.5%	21%	1.8%	0.5	13	0	0.6
COc1ccc(C(=O)N/N=C/c2sc(=O)n(Cc3cccc(C(=O)O)c3)c2Cl)cc1	0.8%	-1%	-6.8%	1.2	22	3	?
Cc1oc(-c2ccccc2F)nc1CN1CCC(C(=O)NCCC2=CCCCC2)CC1	-3.4%	13%	0.7%	0.0	-5	6	3.9
Cc1nn2c(C)c(C(=O)NCc3ccc(OC(C)C)cc3)cnc2c1-c1ccc(F)cc1	1.6%	nt	-1.8%	0.3	-14	nt	nt
Cc1cc(NC(=O)Nc2ccc(F)cc2F)n(C)n1	-0.7%	-4%	nt	2.1	-3	10	1.5
Cc1ccc(N2CCN(C(=O)C3CCC(=O)N(Cc4ccc(Cl)cc4)C3)CC2)c(C)c1 (configuration not stated)	0.5%	1%	-1.9%	1.3	82	-7	nt
Cc1ccc(S(=O)(=O)NCC(c2ccc3c(c2)OCO3)N2CCOCC2)cc1 (configuration not stated)	0.3%	nt	28µM*	-0.4	6	-5	nt
OC(CN1CCN(c2cccc(Cl)c2)CC1)c1ccccc1 (configuration not stated)	5.1%	10%	-0.9%	0.1	-12	8	1.9
COc1ccc(OC)c(CC(NC(C)=O)C(=O)NC2CCN(c3nc(C)cc(C)c3C#N)CC2)c1 (configuration not stated)	nt	7%	nt	nt	nt	-2	2.5
CN1C(=O)NC(c2ccccc2)C2=C1CN(c1cccc(C(F)(F)F)c1)C2=O (configuration not stated)	-3.2%	-9%	40µM*	2.4	5	23	1.9
O=C(CCCN1C(=O)/C(=C/c2cccs2)SC1=S)Nc1cccc(C(=O)O)c1	0.0%	13%	nt	1.0	0	3	-0.3
CCOc1cccc2c1OC1(C)CC2NC(=O)N1c1ccc(OC)cc1 (configuration not stated)	-0.8%	11%	-0.2%	-0.7	-10	-11	6.2
CCOC(=O)c1ccc(N2C(=O)CC(NC3CCN(C(=O)c4ccc(F)cc4)CC3)C2=O)cc1 (configuration not stated)	-1.9%	-8%	0.8%	1.3	-19	7	-0.2
CCCCCc1ccc(C2=NNC(=O)CC2)cc1	-1.2%	4%	-2.0%	1.5	-10	-1	0.0
C=CCNC(=O)c1cccc(NS(=O)(=O)c2ccc(Cl)cc2)c1	-0.5%	10%	-0.2%	-1.1	-1	-1	1.2
CC(C)(C)C(=O)OC/C(N)=N/OC(=O)c1ccccc1	-1.5%	20%	nt	1.2	1	2	1.4
CC(=O)c1sc(NC(=O)C2COc3ccccc3O2)nc1C (configuration not stated)	2.0%	7%	-8.4%	-0.3	16	23	3.5
COc1ccc(-c2nnc(SCC(=O)Nc3cc(OC)ccc3OC)nc2-c2ccc(OC)cc2)cc1	0.3%	nt	?	2.0	-20	nt	nt
C[C@H](CO)N1C[C@H](C)[C@@H](CN(C)CC2CCCCC2)Oc2ccc(NC(=O)Cn3cnnn3)cc2C1=O	-0.8%	nt	-18%	-0.9	-18	nt	nt
CCCN1C(=O)/C(=C\c2ccncc2)SC1=Nc1ccccc1	1.2%	1%	-1.1%	5.2	78	-18	-2.8
COCCCNc1nc2c([nH]1)c(=O)[nH]c(=O)n2C	-0.5%	17%	1.8%	-0.5	1	-6	1.7
O=C(NCc1nc2ccccc2[nH]1)c1c(F)cccc1F	-0.4%	nt	-1.0%	0.6	24	nt	nt
